Beta2AR agonist: agonists of human beta-2 adrenergic receptor inducing internalization | P07550 | Am2.2-beta2AR cells, FAP receptor internalization, flow cytometry; reference of the scale not given here | response, % (test concentration not listed) | actives 0.43% (n = 340,000) | AID 504454;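 active means response above a set limit, near 3 SD of response in nonfluorescent compounds, cut at about 42% in these data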;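 further: stock transfer was 100 nL into about 11 µL; a reference agonist was the positive control; negative values mostly stem from fluorescent compounds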
Target sequence (P07550 whole entry, looked up): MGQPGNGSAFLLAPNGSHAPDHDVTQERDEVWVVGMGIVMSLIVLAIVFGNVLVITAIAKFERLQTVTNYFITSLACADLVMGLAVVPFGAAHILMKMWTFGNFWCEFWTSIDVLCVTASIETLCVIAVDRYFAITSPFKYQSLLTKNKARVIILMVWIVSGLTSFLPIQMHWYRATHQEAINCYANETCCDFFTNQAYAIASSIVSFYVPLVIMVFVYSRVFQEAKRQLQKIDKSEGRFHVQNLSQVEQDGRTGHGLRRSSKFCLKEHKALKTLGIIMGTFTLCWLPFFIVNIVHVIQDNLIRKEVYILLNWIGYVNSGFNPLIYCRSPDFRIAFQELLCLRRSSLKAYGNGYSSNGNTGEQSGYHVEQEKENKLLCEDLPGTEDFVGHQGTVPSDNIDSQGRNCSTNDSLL
RanGTP-Impb inh: disruptors of Ran-importin-beta complex formation – biochemical, FRET, CFP-Ran, YFP-importin-beta, homogeneous, primary screen | cell-free CFP-Ran/YFP-importin-beta FRET ratio | inhibition, % (no concentration beside the values) | actives 1.1% (n = 300,000) | AID 2216;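 active means most replicates above 15%; inconclusive means exactly half above 15%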;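 further: 0% = DMSO wells and 100% = Ran loaded with GDP instead of GTP; wells of about 40 µL received 100 nL stock; the first replicate is given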
Calb FLC: affects C. albicans growth with fluconazole | C. albicans CaCi-2 (fluconazole-resistant clinical isolate) + fluconazole, Alamar Blue growth, 48 h | growth inhibition, % (no concentration beside the values) | actives 0.57% (n = 300,000);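 active means most replicates above 75%; inconclusive means exactly half above 75%; inactive means most below 75%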;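 further: all wells also contain fluconazole at 8 µg/ml as a sub-toxic cotreatment; 0% = median of DMSO wells and 100% = median of geldanamycin control wells; wells of about 8 µL received 7.5 nL stock; the first replicate is given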
Vif A3G: HIV-1 Vif–A3G interaction blockers – biochemical, TR-FRET, GST-Vif 1-94, biotin-A3G peptide, dose response retest, primary screen (AID 1117319); actives 0.57% (n = 260,000); TR-FRET GST-Vif / biotin-A3G peptide binding; higher % means a stronger effect; test concentration not given here; strong numbers were not always called active; one-dose inhibition, %; IC50 in µM for titrated hits;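 active means above the screen mean plus three standard deviations and confirmed in dose response; inconclusive means results disagree or hit not tested in dose response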;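 further: Vif residues 1-94 fused to GST binding biotinylated APOBEC3G peptide 110-148; 0% = full assay without inhibitor and 100% = GST in place of GST-Vif; retest series ran down from 100 µM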
HNF4A DNA FP: change in binding of human HNF4 alpha to DNA. activity change, % at 10 µM. P41235. HNF4a-FITC DNA binding, fluorescence polarization, 1 h. actives 0.3% (n = 360,000); in the data active means activity change above about 30%, passing the limit was not always enough;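 further: controls were the assay level and a saturating level of protein; the project sought stronger binding though the title names inhibitors; some compounds called inactive have numbers as strong as hits; positive values seem to mean higher polarization but the record does not say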
Target sequence (P41235 whole entry, looked up): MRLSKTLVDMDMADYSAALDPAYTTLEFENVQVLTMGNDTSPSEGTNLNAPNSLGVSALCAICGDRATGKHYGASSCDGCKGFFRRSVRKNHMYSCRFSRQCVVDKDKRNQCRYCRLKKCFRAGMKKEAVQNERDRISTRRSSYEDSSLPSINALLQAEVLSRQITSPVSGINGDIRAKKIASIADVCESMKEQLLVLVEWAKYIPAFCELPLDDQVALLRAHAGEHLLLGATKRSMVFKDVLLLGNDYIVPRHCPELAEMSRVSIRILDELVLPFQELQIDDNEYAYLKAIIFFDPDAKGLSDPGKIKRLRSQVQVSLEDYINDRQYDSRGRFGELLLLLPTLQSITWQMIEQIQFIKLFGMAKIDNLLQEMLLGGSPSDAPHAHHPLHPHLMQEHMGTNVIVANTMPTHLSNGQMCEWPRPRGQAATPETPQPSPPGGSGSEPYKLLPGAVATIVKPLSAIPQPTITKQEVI
LANA-H2A inh: blocks KSHV LANA binding to histone H2A/H2B; Q9QR71; cell-free LANA-H2A/H2B peptide, fluorescence polarization; inhibition, % (no concentration beside the values); actives 0.6% (n = 320,000); AID 2629; in the data active means inhibition mostly above about 10%, no sharp cut-off; inactive means mostly below about 6.7%;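 further: stock transfer was 7.5 nL into about 10 µL; 0% = median of vehicle wells and 100% = median of positive control wells; one replicate is shown; the record names a cut of 25% in any replicate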
ALR inh: human ALR oxidase inhibition via reduced H2O2. P55789. purified ALR, DTT oxidation, H2O2 HRP-luminol luminescence. inhibition, % (no concentration beside the values). actives 3.8% (n = 290,000). AID 485317;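 active means mean and each replicate at 75% or more; inconclusive means only one of the two met; inactive means neither met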;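 further: stock transfer was 7.5 nL into about 7.5 µL; 0% = neutral wells and 100% = wells with inactivated enzyme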
Target sequence (P55789 whole entry, looked up): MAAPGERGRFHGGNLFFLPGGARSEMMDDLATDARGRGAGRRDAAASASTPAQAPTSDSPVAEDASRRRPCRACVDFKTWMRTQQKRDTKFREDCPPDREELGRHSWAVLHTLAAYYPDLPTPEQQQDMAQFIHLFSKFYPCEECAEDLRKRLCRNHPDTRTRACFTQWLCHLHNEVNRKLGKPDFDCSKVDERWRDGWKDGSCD
* hit, by the source's call; ? = inconclusive; / = not tested or not shown.

SMILES | Beta2AR agonist | RanGTP-Impb inh | Calb FLC | Vif A3G | HNF4A DNA FP | LANA-H2A inh | ALR inh
O=C(c1cc(S(=O)(=O)N2CCOCC2)ccc1Cl)N1CCCCC1CO (configuration not stated) | -3 | / | / | -8% | -4.8 | -8.0 | -4
CC1CCc2c(sc3nc(CN4CCOCC4)nc(NS(=O)(=O)c4cccc([N+](=O)[O-])c4)c23)C1 (configuration not stated) | 4 | -0.5 | 28 | 4% | 0.9 | -2.9 | 67
CCCCOC1(c2ccccc2)OC(=O)c2ccccc21 (configuration not stated) | 19 | -2.5 | -4 | 1% | -2.5 | -2.0 | /
CCOC(=O)C1=C(C)NC(=O)NC1c1ccc(-c2ccc(Cl)cc2)o1 (configuration not stated) | 23 | 0.9 | 3 | 1% | 1.3 | -3.5 | -2
C=C(C)COc1ccc(-c2[nH]ncc2-c2ccc(Br)cc2)c(O)c1 | 2 | 1.5 | 22 | 13% | 3.9 | 2.7 | 38
CCCCCCc1nc2ccccc2c(=O)n1N | -11 | 2.0 | -5 | 10% | 3.6 | -10.0 | 2
CCC(=O)Nc1ccc(NCc2cccs2)cc1 | -2 | 2.9 | 2 | / | -1.3 | -2.2 | 98*
O=C(c1ccc(-c2ccccc2Cl)o1)N1CCCCCCC1 | -10 | / | / | -3% | 0.4 | / | /
CN1CCN(NC(=O)c2cc(-c3ccc(Br)s3)nc3ccccc23)CC1 | 13 | ? | 20 | / | 10 | 2.8 | /
CC(=O)c1ccc(S(=O)(=O)NCCC(=O)OCC(=O)N(Cc2ccccc2)C(C)(C)C)cc1 | 0 | / | / | / | -4.9 | 4.1 | 0
N#CC1=C(S)N(c2ccccc2)C2(CCCCC2)NC1=O | 3 | -2.2 | -1 | 9% | 0.2 | -3.4 | 22
O=C1C(=O)N(CCc2c[nH]c3ccccc23)C(c2cccnc2)/C1=C(/O)c1ccccc1 (configuration not stated) | / | 5.6 | 20 | -5% | / | -0.9 | 2
N#Cc1cnn(-c2ccccc2)c1NC(=O)CN1CCOCC1 | -1 | -2.4 | -9 | 19% | 7.7 | 4.7 | -6
O=C1C(Cl)=C(N2CCCC2)C(=O)N1c1ccccc1F | 6 | -6.5 | -2 | / | -1.7 | -4.3 | 2
CCOC(=O)C1CCN(C(=O)COC(=O)c2ccc([N+](=O)[O-])o2)CC1 | -6 | / | / | -5% | 0.8 | 9.4 | -38
COc1ccc(NC(=S)N(CCC(C)C)C(C)c2ccncc2)cc1 (configuration not stated) | 5 | 0.3 | -2 | 19% | 0.7 | 3.1 | -8
O=C(Nc1nnc(-c2ccncc2)o1)C1CCCCC1 | 2 | 3.2 | 24 | / | 3.7 | -0.2 | -15
O=S(=O)(c1ccc(F)c(F)c1)N1CCN(S(=O)(=O)c2cccs2)CC1 | -2 | 6.0 | -5 | / | -1.6 | 3.9 | -2
Cc1ccc2cc(C3CC(c4cccs4)=NN3S(C)(=O)=O)c(Cl)nc2c1 (configuration not stated) | 0 | 0.6 | -2 | / | -0.4 | -1.5 | -4
O=C(COc1cccnc1[N+](=O)[O-])N1CCC(Cc2ccccc2)CC1 | -7 | / | / | 3% | 1.9 | 3.6 | -15
C=CCc1ccc(OCCOCCN(C)C)c(OC)c1 | -13 | ? | -12 | 1% | 1.9 | 4.9 | /
O=C(Nc1c2c(nn1-c1ccc([N+](=O)[O-])cc1)CS(=O)(=O)C2)c1ccco1 | 10 | -1.3 | -6 | / | 1.4 | 0.3 | -2
CC(Sc1ccc2nnc(-c3ccc(F)cc3)n2n1)C(=O)O (configuration not stated) | -3 | -1.4 | 3 | 0% | -0.6 | -6.1 | /
CC(C)c1nnc(NC(=O)CCC(=O)NCC2CCCO2)s1 (configuration not stated) | -1 | -3.7 | -1 | -2% | -0.3 | 1.1 | -15
CCc1ccc(N(CC)C(=O)Cc2c(C(=O)O)n(C)c3ccccc23)cc1 | 22 | 1.3 | 7 | 4% | 0.9 | -0.9 | -1
The list continues:
SMILES | Beta2AR agonist | RanGTP-Impb inh | Calb FLC | Vif A3G | HNF4A DNA FP | LANA-H2A inh | ALR inh
Nc1cc2c(cc1Cl)-c1ccc(Cl)cc1C2=O | -5 | / | / | -5% | -2.0 | / | /
Cc1ccc(C(=O)NCC(=O)N(C)CC(=O)Nc2c(Cl)cccc2Cl)s1 | -3 | 1.0 | -2 | 4% | 0.4 | -3.1 | /
COc1ccc(CN2CC[C@@H](N3CCOCC3)[C@H](O)C2)cc1F | 3 | 4.3 | -6 | / | 1.4 | -2.8 | /
COc1ccc(-c2nnc(OC)c3ccccc23)cc1 | -15 | 0.4 | 5 | / | 0.2 | -2.7 | -7
CN(C(=O)c1ccc(S(=O)(=O)N2CCCCC2)cc1)C1CCS(=O)(=O)C1 (configuration not stated) | -2 | 5.3 | 2 | 0% | -0.7 | -1.5 | -4
Cc1ccc(NC(=O)C2CCN(C(=O)c3cccs3)CC2)cc1 | -10 | -0.1 | 8 | / | -2.6 | 4.2 | 7
C/C=C(/C)C(=O)O[C@@H]([C@H](O)c1cc2ccc(=O)oc2cc1OC)C(C)(C)O[C@@H]1O[C@H](CO)[C@@H](O)[C@H](O)[C@H]1O | 17 | / | / | / | 0.8 | 3.0 | -4
O=c1c(-c2ccc(Cl)cc2)cnc2n1CCS2 | -7 | -0.5 | -24 | / | 2.0 | / | -6
O=S(=O)(c1ccccc1OC(F)(F)F)N1CCN(c2ccnc3cc(Cl)ccc23)CC1 | 1 | -0.3 | -2 | / | -2.6 | -3.6 | -2
COc1ccc(Br)cc1CN(C)CC(=O)Nc1cc([N+](=O)[O-])ccc1OC | -6 | 3.9 | -30 | / | 2.4 | / | /
CC(C)c1ccc(/C=C/C2=NNC(=O)CC2)cc1 | 0 | -1.2 | 8 | -4% | -3.5 | 1.6 | 3
Fc1cccc(/C=N/Nc2ccc3ccccc3n2)c1 | -5 | 3.8 | -32 | 4% | 1.6 | -0.4 | -11
Cc1onc(-c2ccccc2)c1C1=N/C(=C\c2ccccc2F)C(=O)O1 | -5 | 2.3 | 4 | 10% | 2.4 | -1.0 | -14
Cc1cc(C)nc(/N=C2\NC(=O)CC(C(=O)O)N2c2cccc(Cl)c2)n1 (configuration not stated) | / | 1.7 | -6 | 7% | / | 2.0 | -8
Cn1c(=O)n(Cc2ccc(F)cc2)c(=O)c2c1nc1n2CCCN1Cc1ccccc1 | 2 | -2.2 | -6 | -4% | 2.6 | 2.1 | 1
CC1=C(C(=O)OC2CCCCC2)C(c2ccccc2F)NC(=O)N1 (configuration not stated) | -25 | -0.4 | -13 | -6% | 0.6 | -3.2 | /
NS(=O)(=O)c1ccc(CCNC(=O)CSCc2ccccc2)cc1 | 0 | -0.1 | -13 | 11% | 6.1 | -2.4 | -16
Cc1ccc(C(C)NC(=O)c2c(C)noc2C)cc1C (configuration not stated) | 2 | -5.0 | -23 | 17% | 6.1 | 4.9 | -2
COc1ccc(C(=O)NCC(=O)OCC(=O)N(C)c2ccccc2)cc1 | -14 | 2.7 | 7 | -8% | 6.5 | -12 | 0
COc1ccccc1NC(=O)C(C)OC(=O)CSCC(=O)Nc1ccc(C)cc1C (configuration not stated) | -2 | / | / | -5% | -3.2 | -2.2 | /
O=C1c2cccc3cccc(c23)C(=O)N1CCCn1ccnc1 | -16 | 1.0 | 2 | / | -3.0 | 5.4 | -3
O=C(Nc1nnc(S(=O)(=O)Nc2ccccc2)s1)C1CCCCC1 | -7 | ? | -9 | / | 0.3 | 4.6 | -3
Cc1cc(NC(=O)CSc2nc(CC(C)(C)C)nc3c2c(=O)n(C)c(=O)n3C)no1 | 8 | -0.2 | -5 | 5% | 3.7 | -8.1 | 17
O=C(Cc1cccc(NC(=O)C2CCN(C(=O)C3CCCC3)CC2)c1)Nc1cccc(C(=O)N2CCCC2)c1 | -7 | / | / | / | 2.2 | 2.5 | -2
CCn1c(SCC(=O)Nc2ccc3[nH]c(=O)[nH]c3c2)nc2ccccc21 | 7 | / | / | 0% | 3.9 | / | 99*

One compound at a time, from the list above. Screens in order: Beta2AR agonist, RanGTP-Impb inh, Calb FLC, Vif A3G, HNF4A DNA FP, LANA-H2A inh, ALR inh
`Cc1cc(C)nc(/N=C2\NC(=O)CC(C(=O)O)N2c2cccc(Cl)c2)n1` (configuration not stated) in the list: /, 1.7, -6, 7%, /, 2.0, -8
`CN1CCN(NC(=O)c2cc(-c3ccc(Br)s3)nc3ccccc23)CC1` in the list: 13, ?, 20, /, 10, 2.8, /
`N#Cc1cnn(-c2ccccc2)c1NC(=O)CN1CCOCC1` in the list: -1, -2.4, -9, 19%, 7.7, 4.7, -6
`Nc1cc2c(cc1Cl)-c1ccc(Cl)cc1C2=O` in the list: -5, /, /, -5%, -2.0, /, /

Next records.
SMILES | Beta2AR agonist | RanGTP-Impb inh | Calb FLC | Vif A3G | HNF4A DNA FP | LANA-H2A inh | ALR inh
C/C(CC(C)C)=N\Oc1nc(C)cc(C)n1 | 10 | 4.3 | -9 | / | 2.2 | 3.6 | -13
CCOc1ncccc1C(=O)NNC(=O)c1cccc(S(=O)(=O)Nc2ccccc2OC)c1 | 0 | -0.3 | -3 | 3% | 3.0 | 0.8 | /
O=C(CSc1nnc(-c2ccc(Br)cc2)n1C1CCCCC1)N1CCCC1 | -17 | 2.9 | 24 | 12% | 0.5 | -1.0 | /
CCOc1ccccc1C1C2=C(COC2=O)Nc2cc3c(cc21)OCO3 (configuration not stated) | 20 | 0.1 | 83* | 15% | -3.1 | -1.8 | /
Cc1cccc(NC(=O)Cn2cnc3c(cnn3-c3ccc(F)cc3)c2=O)c1C | -6 | 2.9 | -2 | 21% | 2.7 | -4.3 | -2
COc1c(C(=O)Nc2nnc(C3CC3)s2)csc1Cl | -11 | -4.9 | 9 | -7% | 1.8 | -6.5 | -5
COc1ccc(-c2nnc3n2N=C(C)CS3)cc1OC | -6 | 0.4 | -15 | ? | 3.7 | -6.9 | -4
Cn1c(N)c(C(=O)CSc2nnc(N)s2)c(=O)n(C)c1=O | -3 | / | / | 1% | 4.5 | -1.7 | 2
Cc1ccc(CN(C)C2CCN(C)CC2)cc1 | -2 | 7.3 | -1 | / | 4.9 | -4.7 | 1
CC(NC(=O)CC1CCCCC1)c1ccccc1 (configuration not stated) | -2 | 3.1 | -4 | / | -2.0 | -4.3 | 5
COc1cc(OC)nc(Oc2ccc(N)c(C)c2)n1 | -3 | 4.7 | -6 | -4% | 1.4 | 5.0 | 8
CCCCN(Cc1ccccc1)S(=O)(=O)c1cc(Br)cc2c1N(C(C)=O)C(C)C2 (configuration not stated) | 6 | -1.9 | -9 | 18% | 0.4 | -3.6 | 2
CN(/C(=N\S(=O)(=O)c1ccccc1)C(F)(F)F)c1ccccc1 | 4 | 0.8 | -12 | -4% | 0.4 | 7.4 | 73
CN(C)c1ccc(S(=O)(=O)c2ccc(Cl)cc2)cc1 | 16 | 1.2 | -2 | -10% | -2.6 | -1.2 | -5
CCOc1nc(-c2ccc(OC)cc2)ccc1-c1noc(C)n1 | 7 | ? | 5 | -36% | 2.8 | 1.2 | 1
Cc1cccc(/C=N/n2c(-c3ccco3)n[nH]c2=S)c1 | 0 | -4.9 | 9 | -3% | 0.7 | -3.5 | 97*
Cn1c(C(N)=O)cnc1Sc1ncc(C(F)(F)F)cc1Cl | -11 | 2.6 | -3 | 4% | 1.0 | -1.6 | -3
Cn1c(N2CCCC2)nc2c1c(=O)[nH]c(=O)n2C | 4 | 2.6 | 2 | / | 0.5 | -1.0 | 30
COc1ccc(/C=C2\SC(=S)N(CC(=O)OCC(=O)Nc3cc(Cl)cc(Cl)c3)C2=O)cc1 | 11 | -3.4 | -3 | / | 5.2 | -2.7 | /
O=C(c1ccc2nc(Cc3ccccc3F)oc2c1)N1CCCC1 | 1 | 0.5 | 7 | 4% | 0.3 | 0.1 | 5
COc1cccc(-c2csc(N3CCN(C(=S)Nc4ccccc4Cl)CC3)n2)c1 | 20 | 3.9 | 0 | 3% | 5.1 | -2.9 | -1
